# High-throughput results: PubChem, Broad Institute
# A1 apoptosis 2: A1 inhibitors via caspase activation, primary screen, cell-based, luminescence, HTS, two replicates; AID 2465, 2010; 24,000 tested, under 10 active; MEF A1-2A-BIM cells, caspase-Glo luminescence, 3 h; percent of clofoctol response, DMSO zero; caspase activation, % (test concentration not listed); in the data active means caspase activation above about 5.9%; inconclusive means no clear call, values can overlap the other calls; inactive means below about 2.2%;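 further: wells of about 30 µL received 50 nL stock; the first replicate is given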
#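 system = A1-2A-BIM-expressing MEF cells | quantity = 2500 MEF cells/well | dosing = 50 nL compound per well, pinned | schedule = overnight cell settling, then 3 h compound exposure, 37 °C | signal = luminescence from DEVD-luciferin Caspase-Glo reagent, 1:1 in 50 mM HEPES, 1 h RT | read-out = Caspase-3/7 activation, seen as rise in luminescence signal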
# * = called active by the depositor; ? = inconclusive. An excerpt; the hit share may differ from the screen's.
Structure,A1 apoptosis 2
C[C@H]1CCCCO[C@@H](CN(C)Cc2ccc3c(c2)OCO3)[C@@H](C)CN([C@@H](C)CO)C(=O)c2cc(N(C)C)ccc2O1,-1.6
C[C@@H]1CN([C@@H](C)CO)C(=O)Cc2cc(NC(=O)CCCN(C)C)ccc2O[C@H]1CN(C)C(=O)Nc1ccc(F)cc1,-0.3
COc1ccc(S(=O)(=O)Nc2ccc3c(c2)CC(=O)N([C@@H](C)CO)C[C@H](C)[C@H](CN(C)S(=O)(=O)c2ccc(OC)cc2)O3)cc1,0.8
CC(C)NC(=O)Nc1ccc2c(c1)CC(=O)N([C@H](C)CO)C[C@H](C)[C@@H](CN(C)Cc1ccncc1)O2,0.6
Cc1ccc(S(=O)(=O)N(C)C[C@@H]2OCc3cn(nn3)CCCC(=O)N([C@@H](C)CO)C[C@@H]2C)cc1,0.7
O=C1O[C@H](c2ccccc2)[C@H](c2ccccc2)N2[C@H]1[C@@H](C(=O)N1CCCCCCC1)[C@]1(C(=O)Nc3ccc(C#CC4=CCCCC4)cc31)[C@H]2c1ccc(O)cc1,0.2
C[C@@H]1CN([C@@H](C)CO)C(=O)Cc2cc(NC(=O)Cn3cnnn3)ccc2O[C@H]1CN(C)S(=O)(=O)c1cn(C)cn1,2.2
Cc1noc(C)c1S(=O)(=O)Nc1ccc2c(c1)C(=O)N([C@H](C)CO)C[C@H](C)[C@@H](CN(C)C(=O)Nc1cccc3ccccc13)OCCCC[C@@H](C)O2,-0.2
C[C@H]1CN([C@@H](C)CO)C(=O)c2cc(NC(=O)Cn3cnnn3)ccc2O[C@H]1CN(C)S(=O)(=O)c1cccs1,-1.3
COc1ccc(NC(=O)Nc2ccc3c(c2)C(=O)N([C@@H](C)CO)C[C@H](C)[C@H](CN(C)Cc2ccc4c(c2)OCO4)OCCCC[C@@H](C)O3)cc1,-1.0
C[C@@H]1CN([C@@H](C)CO)C(=O)Cc2cc(NC(=O)Nc3ccc(C(F)(F)F)cc3)ccc2O[C@H]1CN(C)Cc1ccc(C(F)(F)F)cc1,0.2
C[C@@H]1CN([C@@H](C)CO)C(=O)c2cccc(NC(=O)c3ccc(-c4nccs4)cc3)c2O[C@H]1CN(C)S(=O)(=O)c1ccc(F)cc1,0.9
C[C@@H]1CN([C@H](C)CO)C(=O)CCCn2cc(nn2)CO[C@@H]1CN(C)C(=O)NC1CCCCC1,-0.6
Cc1noc(C)c1NC(=O)Nc1ccc2c(c1)CC(=O)N([C@H](C)CO)C[C@H](C)[C@@H](CN(C)S(=O)(=O)c1ccccc1)O2,-0.9
COc1ccc(CN(C)C[C@H]2OCCCC[C@H](C)Oc3ccc(NC(=O)Nc4cccc5ccccc45)cc3C(=O)N([C@H](C)CO)C[C@@H]2C)cc1,1.1

# The list goes on; it opens with the 6 that closed the last part.
Structure,A1 apoptosis 2
COc1ccc(NC(=O)Nc2ccc3c(c2)C(=O)N([C@@H](C)CO)C[C@H](C)[C@H](CN(C)Cc2ccc4c(c2)OCO4)OCCCC[C@@H](C)O3)cc1,-1.0
C[C@@H]1CN([C@@H](C)CO)C(=O)Cc2cc(NC(=O)Nc3ccc(C(F)(F)F)cc3)ccc2O[C@H]1CN(C)Cc1ccc(C(F)(F)F)cc1,0.2
C[C@@H]1CN([C@@H](C)CO)C(=O)c2cccc(NC(=O)c3ccc(-c4nccs4)cc3)c2O[C@H]1CN(C)S(=O)(=O)c1ccc(F)cc1,0.9
C[C@@H]1CN([C@H](C)CO)C(=O)CCCn2cc(nn2)CO[C@@H]1CN(C)C(=O)NC1CCCCC1,-0.6
Cc1noc(C)c1NC(=O)Nc1ccc2c(c1)CC(=O)N([C@H](C)CO)C[C@H](C)[C@@H](CN(C)S(=O)(=O)c1ccccc1)O2,-0.9
COc1ccc(CN(C)C[C@H]2OCCCC[C@H](C)Oc3ccc(NC(=O)Nc4cccc5ccccc45)cc3C(=O)N([C@H](C)CO)C[C@@H]2C)cc1,1.1
C[C@H](CO)N1C[C@H](C)[C@@H](CN(C)S(=O)(=O)c2ccccc2)Oc2ccc(NS(=O)(=O)c3ccc(Cl)cc3)cc2C1=O,2.6
C[C@H](CO)N1C[C@H](C)[C@H](CN(C)CC2CC2)Oc2c(NC(=O)C3CCOCC3)cccc2C1=O,0.5
Cc1ccc(S(=O)(=O)Nc2ccc3c(c2)CC(=O)N([C@@H](C)CO)C[C@@H](C)[C@@H](CN(C)Cc2ccncc2)O3)cc1,-1.3
CNC[C@@H]1Oc2ncc(-c3ccc(F)cc3)cc2C(=O)N([C@H](C)CO)C[C@@H]1C,0.7
C[C@@H]1CCCCO[C@@H](CN(C)C(=O)Nc2ccc(C(F)(F)F)cc2)[C@@H](C)CN([C@H](C)CO)C(=O)c2cc(NC(=O)c3ccccc3)ccc2O1,0.1
CC1=C(C/C=N/NC(=O)c2ccccc2O)C(C)(C)CCC1,0.1
C[C@H](CO)N1C[C@H](C)[C@@H](CN(C)S(=O)(=O)c2ccc(Cl)cc2)Oc2ccc(NC(=O)CCC(F)(F)F)cc2C1=O,1.0
C[C@H](CO)N1C[C@H](C)[C@H](CN(C)C(=O)Nc2ccc3c(c2)OCO3)Oc2ncc(C#Cc3ccc(F)cc3)cc2C1=O,1.9
CC(C)NC(=O)N(C)C[C@H]1OCCCC[C@@H](C)Oc2ccc(NC(=O)NC3CCCCC3)cc2C(=O)N([C@H](C)CO)C[C@@H]1C,0.0
C[C@@H]1CN([C@H](C)CO)C(=O)c2cccc(NC(=O)NC3CCCCC3)c2O[C@H]1CN(C)CC1CCCCC1,-1.1
C[C@H]1CN([C@@H](C)CO)C(=O)c2cccc(NC(=O)c3cnccn3)c2O[C@@H]1CN(C)C(=O)NC1CCCCC1,0.4
COc1ccc(S(=O)(=O)Nc2ccc3c(c2)CC(=O)N([C@@H](C)CO)C[C@@H](C)[C@@H](CN(C)C(=O)Nc2ccc(F)cc2)O3)cc1,-0.2
C[C@@H]1CCCCO[C@H](CN(C)Cc2ccc3c(c2)OCO3)[C@H](C)CN([C@H](C)CO)C(=O)c2cc(NC(=O)c3ccncc3)ccc2O1,0.0
CC(C)NC(=O)Nc1ccc2c(c1)CC(=O)N([C@H](C)CO)C[C@H](C)[C@H](CN(C)Cc1ccc(Oc3ccccc3)cc1)O2,-0.5
CC(C)NC(=O)N(C)C[C@@H]1Oc2ccc(NC(=O)Nc3cccc4ccccc34)cc2CC(=O)N([C@H](C)CO)C[C@H]1C,-0.1
O=C1O[C@H](c2ccccc2)[C@H](c2ccccc2)N2[C@H]1[C@@H](C(=O)NC[C@H](O)c1ccccc1)[C@]1(C(=O)Nc3ccccc31)[C@H]2c1ccccc1OCCO,-2.2
C[C@@H]1CN([C@@H](C)CO)C(=O)Cc2cc(NC(=O)Nc3cccc4ccccc34)ccc2O[C@H]1CN(C)C(=O)Nc1ccc(F)cc1,-0.8
COc1ccc(NC(=O)Nc2ccc3c(c2)CC(=O)N([C@H](C)CO)C[C@@H](C)[C@@H](CN(C)S(=O)(=O)c2ccc(Cl)cc2)O3)cc1,-0.5
COC(=O)CCCCCCC(=O)N/N=C/c1ccc(N2CCCC2)cc1,0.8
Cc1ccc(S(=O)(=O)N(C)C[C@@H]2OCCCC[C@H](C)Oc3ccc(NC(=O)Nc4ccc5c(c4)OCO5)cc3C(=O)N([C@H](C)CO)C[C@@H]2C)cc1,-0.1
COc1ccc(S(=O)(=O)N(C)C[C@H]2OCCCC[C@H](C)Oc3ccc(NC(=O)Nc4c(C)noc4C)cc3C(=O)N([C@@H](C)CO)C[C@H]2C)cc1,0.8
C[C@@H]1CCCCO[C@@H](CN(C)C(=O)CCC(F)(F)F)[C@H](C)CN([C@H](C)CO)C(=O)c2cc(NS(C)(=O)=O)ccc2O1,-1.3
C[C@H]1CCCCO[C@@H](CN(C)C(=O)Nc2ccccc2)[C@@H](C)CN([C@@H](C)CO)C(=O)c2cc(NC(=O)Nc3cccc4ccccc34)ccc2O1,1.5
C[C@H]1CN([C@@H](C)CO)C(=O)Cc2cc(NC(=O)Nc3ccc(C(F)(F)F)cc3)ccc2O[C@@H]1CN(C)S(=O)(=O)c1cccs1,-0.5
C[C@H](CO)N1C[C@H](C)[C@@H](CN(C)Cc2ccc(C(F)(F)F)cc2)Oc2c(NC(=O)Nc3ccc(F)cc3)cccc2C1=O,-0.4
C=CCOC(=O)C1=C[C@@H](c2csc3ccccc23)C[C@@H](OCCCCO)O1,-1.3
C[C@H](CO)N1C[C@H](C)[C@@H](CN(C)C(=O)Nc2ccc(C(F)(F)F)cc2)Oc2c(NC(=O)NC3CCCCC3)cccc2C1=O,-0.7
C[C@H](CO)N1C[C@H](C)[C@H](CN(C)C(=O)Nc2ccc(F)cc2)Oc2c(NC(=O)Nc3ccccc3)cccc2C1=O,0.0
C[C@@H]1CCCCO[C@@H](CN(C)C(=O)Nc2cccc3ccccc23)[C@H](C)CN([C@H](C)CO)C(=O)c2cc(NS(=O)(=O)c3cn(C)cn3)ccc2O1,0.0
Cc1cc(C(=O)Nc2cccc3c2O[C@H](CN(C)Cc2ccc4c(c2)OCO4)[C@@H](C)CN([C@H](C)CO)C3=O)n(C)n1,0.4
COc1ccc(NC(=O)N(C)C[C@H]2Oc3c(NC(=O)C4CCOCC4)cccc3C(=O)N([C@@H](C)CO)C[C@@H]2C)cc1,-0.1
C[C@@H]1CN([C@H](C)CO)C(=O)Cc2cc(NC(=O)Nc3ccc(C(F)(F)F)cc3)ccc2O[C@H]1CN(C)C(=O)NC1CCCCC1,-0.4
C[C@@H]1CN([C@H](C)CO)C(=O)c2cc(N(C)C)ccc2O[C@@H](C)CCCCO[C@H]1CN(C)Cc1ccncc1,0.8
CC(C)NC(=O)Nc1ccc2c(c1)CC(=O)N([C@@H](C)CO)C[C@H](C)[C@@H](CN(C)C(=O)NC(C)C)O2,-0.9
C[C@@H]1CN([C@H](C)CO)C(=O)CCCn2nncc2CO[C@@H]1CN(C)C(=O)Nc1ccc(N2CCN(C)CC2)cc1,0.0
C[C@H](CO)N1C[C@H](C)[C@@H](CN(C)C(=O)Nc2ccc(F)cc2)OCCCC[C@H](C)Oc2ccc(NC(=O)Nc3ccc(C(F)(F)F)cc3)cc2C1=O,?
C[C@@H]1CN([C@H](C)CO)C(=O)c2cc(NC(=O)C3CCCCC3)ccc2O[C@H]1CN(C)Cc1ccc2c(c1)OCO2,0.2
C[C@@H]1CCCCO[C@H](CN(C)Cc2ccccc2)[C@@H](C)CN([C@@H](C)CO)C(=O)c2cc(NC(=O)c3ccncc3)ccc2O1,0.6
Cc1ncc(CO)c(/C=N/NC(=O)CCCCCCC(=O)Nc2ccccc2O)c1O,-1.3
COc1ccc(S(=O)(=O)Nc2ccc3c(c2)CC(=O)N([C@@H](C)CO)C[C@@H](C)[C@@H](CN(C)C)O3)cc1,0.7
C[C@@H]1CN([C@H](C)CO)C(=O)c2cc(NC(=O)c3ccccc3)ccc2O[C@@H](C)CCCCO[C@@H]1CN(C)S(=O)(=O)c1cn(C)cn1,-1.7
Cc1ccc(S(=O)(=O)N(C)C[C@@H]2OCCCC[C@H](C)Oc3ccc(N(C)C)cc3C(=O)N([C@H](C)CO)C[C@@H]2C)cc1,-0.8
COc1ccc(S(=O)(=O)N(C)C[C@@H]2Oc3ccc(NS(=O)(=O)c4cccs4)cc3CC(=O)N([C@H](C)CO)C[C@H]2C)cc1,-0.3
CC(C)NC(=O)Nc1ccc2c(c1)C(=O)N([C@H](C)CO)C[C@H](C)[C@H](CN(C)Cc1ccc(C(=O)O)cc1)OCCCC[C@H](C)O2,-0.1
Cc1noc(C)c1NC(=O)Nc1cccc2c1O[C@H](CN(C)CC1CCCCC1)[C@@H](C)CN([C@H](C)CO)C2=O,0.5

# Some values from the results shown:
# A1 apoptosis 2, Cc1ccc(S(=O)(=O)Nc2ccc3c(c2)CC(=O)N([C@@H](C)CO)C[C@@H](C)[C@@H](CN(C)Cc2ccncc2)O3)cc1 is entered as -1.3
# A1 apoptosis 2, C[C@@H]1CCCCO[C@@H](CN(C)C(=O)Nc2ccc(C(F)(F)F)cc2)[C@@H](C)CN([C@H](C)CO)C(=O)c2cc(NC(=O)c3ccccc3)ccc2O1 is entered as 0.1

# Further compounds
Structure,A1 apoptosis 2
CNC[C@H]1Oc2c(NC(=O)c3cc(C)nn3C)cccc2C(=O)N([C@@H](C)CO)C[C@H]1C,0.2
COc1ccc(CN(C)C[C@@H]2OCCCC[C@@H](C)Oc3ccc(NC(=O)NC4CCCCC4)cc3C(=O)N([C@H](C)CO)C[C@@H]2C)cc1,0.7
COc1ccc(S(=O)(=O)Nc2ccc3c(c2)C(=O)N([C@H](C)CO)C[C@H](C)[C@H](CN(C)S(=O)(=O)c2ccc(F)cc2)O3)cc1,1.7
C[C@H](CO)N1C[C@H](C)[C@@H](CN(C)S(C)(=O)=O)Oc2c(NC(=O)c3ccncc3)cccc2C1=O,-1.2
O=C1O[C@H](c2ccccc2)[C@H](c2ccccc2)N2[C@H]1[C@@H](C(=O)O)[C@]1(C(=O)Nc3ccc(C#CC4(O)CCCCCC4)cc31)[C@H]2c1ccccc1OCCO,0.9
Cc1noc(C)c1NC(=O)Nc1ccc2c(c1)C(=O)N([C@@H](C)CO)C[C@@H](C)[C@@H](CN(C)S(=O)(=O)c1cn(C)cn1)OCCCC[C@H](C)O2,-0.8
C[C@H](CO)N1C[C@H](C)[C@@H](CN(C)S(=O)(=O)c2ccc(Cl)cc2)Oc2ccc(NC(=O)C3CC3)cc2CC1=O,0.6
Cc1noc(C)c1S(=O)(=O)N(C)C[C@@H]1OCCCC[C@H](C)Oc2ccc(N(C)C)cc2C(=O)N([C@H](C)CO)C[C@H]1C,-0.2
COc1ccc(NC(=O)Nc2ccc3c(c2)C(=O)N([C@H](C)CO)C[C@H](C)[C@H](CN(C)Cc2ccc(C(=O)Nc4ccccc4N)cc2)OCCCC[C@@H](C)O3)cc1,-0.6
